NPYLR7 agonist: activates Aedes aegypti NPYLR7 receptor; actives 0.15% (n = 270,000); HEK293T NPYLR7/Galpha15, GCaMP6s calcium fluorescence; activation, % at 10 µM; in the data active means activation above about 40%;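 further: 0% = vehicle and 100% = reference agonist at the receptor; some compounds past the cut are filed as inactive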
NPYLR7 agonist max-min: also measured in NPYLR7 agonist; calls as there; activation, %; measured here: Max-Min RFU normalised activation; some inactives read as strong as hits;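 span of the calcium signal over five minutes; 0% = vehicle and 100% = native peptide agonist; compound fluorescence can raise it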
Active calls of the source: *. Not all compounds are listed, so the mix of outcomes need not match the whole.

SMILES | NPYLR7 agonist | NPYLR7 agonist max-min
CC=CC(=O)OCc1nc2c(c(=O)[nH]c(=O)n2CCCC)n1C | 14 | 14
Cc1nc(Cn2c3ccc(NC(=S)NC4CCCCC4)cc3c(=O)n2C)cs1 | -1 | -3
Cc1cc(C)n(CCCn2ccnc2-c2ccc(N(C)C)nc2)n1 | 4 | -3
Cc1cc(NS(=O)(=O)c2cc(Cl)c(C)c([N+](=O)[O-])c2)ccc1N1CCCC1=O | 6 | 15
COc1ccc(C)cc1-c1ccc(C(N)=O)cn1 | 12 | 10
Cn1cc(S(=O)(=O)N2CCNCC2)cc1C(N)=O | 8 | 17
Cc1cc(C)c(NC(=O)CSc2ccc3nnc(-c4cccnc4)n3n2)c(C)c1 | 2 | 1
COc1ccc(NC(=O)CSc2ccc(-c3sc(C)nc3C)nn2)c(OC)c1 | 3 | -6
Cc1ccc(C)c(N2N=C(C(=O)Nc3ccc(-n4cccn4)c(F)c3)CCC2=O)c1 | 2 | 1
COC(=O)c1ccc(NC(=O)N2CCCCC2CCn2ccnc2)cc1 (stereo not drawn) | -3 | -10
CC(NC(=O)C[n+]1cccc(Br)c1)c1ccccc1 (stereo not drawn) | 3 | 2
Cc1cccc(-n2nc([N+](=O)[O-])c(=Nc3ccc(Br)c(C)c3)n2O)c1 | 1 | -1
Cc1cccc(NC(=O)CCc2c(C)[nH]c(=O)[nH]c2=O)c1 | -9 | -13
C=CCC(O)c1nnc(Nc2cccc(OC(F)(F)F)c2)s1 (stereo not drawn) | 3 | 2
NC(=O)c1nnc2n1CCN(C(=O)c1ccccc1)C2 | 9 | 6
O=C(Cc1ccc(F)cc1)N(CCCn1ccnc1)c1nc2c(F)cccc2s1 | -11 | -16
COc1cc(/C=C/c2ccccc2)ccc1NC(C)=O | 3 | 2
Cc1cc(C(=O)N2CCCC(N3CCN(c4cccc(Cl)c4)CC3)C2)nn1C (stereo not drawn) | 9 | 3
CCc1nc2ccc(C(=O)NCCOc3ccc(OC)cc3)cn2c1N(CCC(C)C)CCN(C)C | 5 | -6
Cc1cc(C(=O)N2CCN(c3ncccc3C(=O)NCC3CCCO3)CC2)no1 (stereo not drawn) | -2 | -12
O=C(c1ccc(O)cn1)N1C[C@@H]2C3CCC(CC3)[C@@H]2C1 | 11 | 8
CC1(C)CC2(CC(C)(C)N1)OC(=O)N(CCCO)C2(C)O (stereo not drawn) | 5 | 3
CCC(CC)N1CC(C(=O)Nc2ccc(NC(C)=O)cc2)CC1=O (stereo not drawn) | 2 | 1
COc1ccc(C)cc1NC(=O)C(C)N1CCc2sccc2C1 (stereo not drawn) | 5 | 5
Cc1ccc2oc3c(c(=O)c2c1)C(c1cccc(O)c1)N(Cc1ccccc1)C3=O (stereo not drawn) | 9 | 12
CCCCn1c(=O)[nH]c(=O)c2c1nc(CSC1CCCC1)n2CC | 7 | 8
CSc1nc2scc(-c3cccs3)c2c(=O)n1CC(C)C | -2 | -2
CC(C)CC(c1nc(-c2cnn(C)c2)no1)N1CCCCC1=O (stereo not drawn) | 2 | 0
O=[N+]([O-])c1cc(C(F)(F)F)cc([N+](=O)[O-])c1N1CCCC(C(F)(F)F)C1 (stereo not drawn) | 2 | 6
C/C(=C/c1ccccc1)CNCc1cccc(C(N)=O)c1 | -6 | -6
CCOC(=O)C1CCCN(C(=O)c2cc3n(n2)CCN(Cc2ccc(OC)cc2)C3=O)C1 (stereo not drawn) | -4 | 3
Cc1cccn2c(CN3CCCC3c3ccc(F)cc3)c(C(=O)N3CCOCC3)nc12 (stereo not drawn) | 5 | 9
COc1cccc(N2CCC(N3CCCC(N4CCN(c5ccccc5C)CC4)C3)CC2)c1 (stereo not drawn) | 4 | 0
CCC(C)C(NC(=O)c1ccc(OC)c(OC)c1)C(=O)Nc1nnc(-c2cccc(OC)c2)s1 (stereo not drawn) | -3 | 9
O=C(Cc1ccc(Cl)cc1)Nc1ccc(-c2ccc3nncn3n2)cc1 | -14 | -7
O=C(NCC(=O)N1CCc2sccc2C1)c1ccccc1 | 2 | 1
COc1ccc(CCNc2ncnc3c2cnn3-c2ccc(F)cc2)cc1 | 11 | 5
CC(c1cccc(-c2c(-c3ccccc3)ncn2CC(N)=O)c1)N(C)C (stereo not drawn) | -1 | -5
CN(C)CC1(O)CCCN(c2ccc(C(F)(F)F)cn2)CC1 (stereo not drawn) | 4 | -4
CC1C(=O)N(c2ccccc2-c2ccccc2)CCN1C(=O)C1CCC1 (stereo not drawn) | -4 | -3
O=C(NC(C(=O)O)c1ccccc1)c1ccoc1 (stereo not drawn) | 2 | 9
C=CCn1c(C)cc(C(=O)CSc2n[nH]c(=O)n2CCC)c1C | 4 | 4
Cc1nn(C)c(C)c1C1CCCN1C(=O)c1ccc(C(N)=O)cn1 (stereo not drawn) | 6 | 1
COc1ccc(Nc2cc3c(cn2)nc(-c2ccc(OC)c(OC)c2)n3C)cc1 | -1 | -2
S=c1[nH]c(-c2ccccc2)c(-c2ccccc2)[nH]1 | 4 | 2
Cc1ncsc1CCC(=O)NCc1noc(-c2cccs2)n1 | -4 | -7
O=C(NNC(=O)C1CC=CCC1)c1cccc(S(=O)(=O)N2CCCC2)c1 (stereo not drawn) | 1 | 8
Cc1ccc2c(c1)[C@H]1NCCC(=O)N(C)C[C@H]1CO2 | 7 | 11
CCN(Cc1ccoc1)C(=O)C(c1ccccc1)N1CCCCC1=O (stereo not drawn) | 12 | 10
O=S1(=O)c2ccccc2C2C1C1c3ccccc3S(=O)(=O)C21 (stereo not drawn) | 15 | 11
CCOC(=O)C(c1cc(OC)ccc1OC)C1C=CC(NC(=O)c2ccc(OC)cc2OC)C1 (stereo not drawn) | 8 | 8
CN1C(=O)C(CC(=O)NCCn2cccn2)(Cc2ccccc2)c2ccccc21 (stereo not drawn) | 1 | 0
CCCNC(=O)c1cc(NC(=O)Nc2ccc(SC)cc2)ccc1N1CCCC1 | -3 | 4
c1ccc2c(c1)nc1n2CN(C2CCCCC2)CN1 | -1 | -2
Cc1noc(C(C)OC(=O)c2cc(C(C)(C)C)on2)n1 (stereo not drawn) | 5 | 5
O=C(c1ccc(-c2ccccc2)c(F)c1)C1CCCN(C(=O)c2cccnc2)C1 (stereo not drawn) | 3 | 0
Cc1c(C(=O)NN=Cc2ccc(-c3ccccc3[N+](=O)[O-])o2)sc(N)c1C#N | 4 | -2
CCC1(CC)NC(=O)N(CC(=O)Nc2ccc(C)cc2F)C1=O | 4 | 2
COc1ccc(N2CCN(C(=O)c3cc(-c4ccc(Cl)cc4)n(-c4ccc(C)cc4)c3C)CC2)cc1 | -6 | 0
Cc1ccc(N=C(Nc2ccccc2)Nc2ccccc2)cc1 | -2 | -4
The results go on.
SMILES | NPYLR7 agonist | NPYLR7 agonist max-min
COCCN(CC(=O)Nc1nc(CC(=O)N2CCN(c3ccccc3OC)CC2)cs1)C(=O)c1ccco1 | 8 | 14
CC(NC1CCN(c2cccc(NC(=O)c3cccc(C(F)(F)F)c3)c2)CC1)c1nccs1 (stereo not drawn) | 16 | 2
CCC(=O)Nc1cccc(C(=O)N2CCC(O)(c3ccccc3C)C2)c1 (stereo not drawn) | 8 | 6
C=CCOC(=O)c1sc(N2C(=O)C(=O)C(=C(O)c3ccc(F)cc3)C2c2cccs2)nc1C (stereo not drawn) | 1 | 1
COc1cc(C2Sc3ccccc3N=C3COC(=O)C32)cc(OC)c1OC (stereo not drawn) | -1 | 4
COc1ccc(C2c3cccn3CCCN2Cc2cc(C)cc(C)c2)c(OC)c1 (stereo not drawn) | 2 | 13
O=C(O)c1ccccc1C(=O)Nc1nccs1 | 5 | 2
COc1ccc(/C=C/C(=O)NCC(=O)N=Nc2c(O)n(Cc3ccccc3)c3ccccc23)cc1 | 1 | -6
Cc1cccc(-n2nc(C(=O)NCCN3CCOCC3)c(=O)n(Cc3ccccc3)c2=O)c1 | 12 | 10
O=C(c1ccc(Cl)cc1)N1CCOC(c2ccccc2)C1 (stereo not drawn) | 20 | 15
CCOC(=O)CCCC(=O)N1CCN(c2ncccc2C(=O)NCc2ccc3c(c2)OCO3)CC1 | 20 | 9
COC(=O)c1cc(C)cc(N2CCCC2)c1C(=O)OC | -6 | -7
OCc1nccn1-c1ccc(C(F)(F)F)cn1 | -2 | -6
c1cc(CNCc2ccncc2)ccn1 | -10 | -20
CC(C)(CNCc1ccn[nH]1)c1ccccc1 | -1 | -7
Cc1ccc(S(=O)(=O)CCC(=O)N(CCN(C)C)c2nc3c(C)cc(C)cc3s2)cc1 | 1 | -3
CCOC(=O)C1CCN(C(=O)c2coc(CN(CCc3c[nH]c4ccccc34)Cc3ccccc3Cl)n2)CC1 | 15 | 9
COc1ccccc1CCNC(=O)CN1CN(c2ccccc2)C2(CCN(C(=O)Nc3cccc(F)c3)CC2)C1=O | 24 | 27
Cc1cnc(SCCN2CCOCC2)nc1C1CCCN(C(=O)c2ccc3cc[nH]c3c2)C1 (stereo not drawn) | 7 | -2
O=C(c1ccc(N2[C@@H]3CC[C@H]2CNC3)nc1)N1CCC(N2CCOCC2)CC1 | 0 | -4
COc1ccc(S(=O)(=O)N(C(=O)c2cccnc2)c2cc3sc(=O)oc3c3ccccc23)cc1 | 3 | 14
FC(F)(F)c1cccc(CCNc2nncc(-c3ccccc3)n2)c1 | 3 | 6
COCCO[C@H]1[C@H](NC(=O)C(C)C)c2ccccc2C12CCN(C(=O)[C@@H](O)c1ccccc1)CC2 | 3 | -8
COc1ccccc1-c1cnc(NC(C)=O)cn1 | 2 | 1
Cc1cc(C)cc(N2C(=O)CC(C3CCCC=C3N3CCOCC3)C2=O)c1 (stereo not drawn) | 4 | 3
CC(C)(C)c1cc2nc(-c3ccccc3)cc(C(=O)N3CCOCC3)n2n1 | 6 | 6
COc1cccc2cc(-c3nnc(Nc4cccc(C(F)(F)F)c4)s3)c(=O)oc12 | -2 | -8
CCCN1CCCN(c2ccnc(C(=O)NCc3ccncc3)c2)CC1 | 7 | 5
CC(C)Nc1ncccc1C(=O)NC1CCN(Cc2ccccc2)C1 (stereo not drawn) | -6 | -9
CCCc1nc(C)c(CNC(=O)C2CCOC2)s1 (stereo not drawn) | 4 | 2
CC1CC(C)CN(/C=C(/Br)C(=O)C(F)(F)F)C1 (stereo not drawn) | 2 | 1
Cc1cccc(CSCC(=O)OCC(=O)N2c3ccccc3NC(=O)C2(C)C)c1 | -2 | -3
CSc1nnc(C)c(=O)n1COC(=O)COc1ccccc1F | -7 | -9
CC(NC(=O)c1cc(NC(=O)c2ccccc2Br)ccc1N1CCCCC1)c1ccccc1 (stereo not drawn) | 13 | 20
O=C(c1cccc(N2CCNC2=O)c1)N1CCOC(C(F)(F)F)C1 (stereo not drawn) | 15 | 13
OCCN1CCN(c2cc(-c3cc4ccccc4o3)nc3ccnn23)CC1 | -4 | -8
COCC(=O)N(Cc1ccc(OC)c(OS(=O)(=O)c2ccc(NC(C)=O)cc2)c1)C(C)C | 2 | 9
CS(=O)(=O)Nc1ccc(-c2ccc3c(c2)OCO3)cn1 | 2 | 5
CCCc1nc(N2CCN(C(=O)Nc3cccc(C(F)(F)F)c3)CC2)c2c(C)nn(-c3ccccc3)c2n1 | 9 | 12
COC(=O)Nc1ccc(-c2nc(N3CCOCC3)c3cnn(C4CCN(C(=O)OC)CC4)c3n2)cc1 | -5 | -12
CC1C(=O)N(c2ccc(F)cc2F)CCN1C(=O)c1ccc(Cl)c(Cl)c1 (stereo not drawn) | 1 | 10
CN1CCN(N=CC2C(=O)Nc3ccccc32)CC1 (stereo not drawn) | -12 | -12
COc1ccc(-c2ccc(NC(=O)CN)c(F)c2)cn1 | -1 | 10
O=C(c1cc(CN2CCCC(O)C2)on1)N1CCc2ccccc2C1 (stereo not drawn) | 1 | 3
O=c1c2cnc3nc4ccccc4n3c2ccn1-c1ccc(Br)cc1 | 0 | -1
O=C(Cn1c(CO)c[nH]c1=S)NCc1ccccc1 | 1 | -2
O=C(c1ccc2ccccc2n1)N1CC(c2ccncc2)C1 | 2 | -2
N=C1SCC(=O)N1c1ncc(Cc2ccccc2)s1 | 9 | 5
Cc1n[nH]c(C)c1C(C)NC(=O)c1ccc2oc(CCCc3ccccc3)nc2c1 (stereo not drawn) | 16 | 12
CC(C)(CN1CCCCC1)NC(=O)c1cc(COc2ccccc2)[nH]n1 | 3 | 3

Bioassay records deposited in PubChem BioAssay by Fisher Drug Discovery Resource Center.
